# T. gondii: T. gondii ME49Luc in HeLa cells, luciferase assay, 72 h, no IFN-y (AID 1259421). 6,400 tested, 9.6% active. activity change, negative = inhibition, %. T. gondii ME49Luc in HeLa, luciferase, 72 h, no IFN-y; stronger effect = lower value; reference of the scale and settings of repeat entries not given here; many of its hits are not listed in these tables;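 active means activity change below -70%; inconclusive means fit judged invalid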;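 further: about 20 µM from a 10 mM stock diluted 500-fold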
# Numbers without * were called inactive; ? = inconclusive; & = joins results of further samples. This is a subset. The share of hits here may be higher or lower than overall.
SMILES,T. gondii
Cc1cnc(NC(=O)Nc2cc(Br)c(C)cc2OC[C@@H]2CNCCO2)cn1,-68
COc1cc(N2CCC(N(C)C)CC2)ccc1Nc1ncc(Cl)c(Nc2ccccc2P(C)(C)=O)n1,-60
CS(=O)(=O)N1CCc2c(-c3cnc(N)nc3)nc(N3CCOCC3)nc21,-4
O=C(NCCCN1CCC2(CC1)OCc1ccccc12)[C@H]1CCCN1Cc1ccccc1,19
CN1CCN(c2cc3c(cc2F)c(=O)c(C(=O)O)cn3-c2ccc(F)cc2)CC1,4
Cc1cc(-c2cc(O)ccc2Cl)cc2nnc(Nc3ccc(OCCN4CCCC4)cc3)nc12,-90*
CN=C(NC#N)Nc1ccc(C2=NNC(=O)CC2C)cc1 (stereo not drawn),4&27
CNC(=O)c1ccccc1Nc1cc(Nc2ccc(N3CCOCC3)cc2OC)ncc1C(F)(F)F,-47
OCC(O)CN1CCN(c2ccccc2)CC1 (stereo not drawn),6&11
COc1ccc([C@@H]2CNC(=O)C2)cc1OC1CCCC1,11&-3
Cc1ccc(C(=O)Nc2ccc(CN3CCN(C)CC3)c(C(F)(F)F)c2)cc1C#Cc1cnc2[nH]ncc2c1,-89*
CCC[C@H](N[C@H]1CCc2cc(F)cc(F)c2C1)C(=O)Nc1cn(C(C)(C)CNCC(C)(C)C)cn1,-18
C#C[C@]1(OC(C)=O)CCC2C3CCC4=C/C(=N/O)CCC4C3CC[C@@]21CC (stereo partly drawn),-85*
Cc1nc(C#Cc2ccnc(Cl)c2)c(C)n1-c1ccc(F)cc1,22
CCCc1cc(C)[nH]c(=O)c1CNC(=O)c1cc(-c2ccc(N3CCN(C(C)C)CC3)nc2)cc2c1cnn2C(C)C,-22
O=c1[nH]c(-c2ccc(C(F)(F)F)cc2)nc2c1CSCC2,29
COC(=O)c1cc(S(C)(=O)=O)ccc1OC,10
CCCCOC(=O)c1ccc(N)cc1,77&31
Cc1nc(C)c(-c2ccc(C3CCC(CC(=O)O)CC3)cc2)nc1C(N)=O (stereo not drawn),22
O=C(N[C@H]1CCN(C(=O)c2cc(C(F)(F)F)cc(C(F)(F)F)c2)[C@H](Cc2ccc(Cl)cc2)C1)c1ccnc2ccccc12,25
O=C(NCC(=O)N1CC[C@H](NC2CCC(O)(c3ccc(-c4ncccn4)cn3)CC2)C1)c1cccc(C(F)(F)F)c1 (stereo partly drawn),13
O=C(O)CCCCCCCC(=O)O,13
O=C(CN1C(=O)C2(CCCC2)NC[C@H]1c1cc(F)cc(F)c1)Nc1ccc2c(c1)C[C@@]1(C2)C(=O)Nc2ncccc21,-9
O=c1cc(N2CCOCC2)nc2c3ccccc3ccn12,7

# Sorted by molar mass (lowest first): part of the list above.
SMILES,T. gondii
O=C(O)CCCCCCCC(=O)O,13
CCCCOC(=O)c1ccc(N)cc1,77&31
OCC(O)CN1CCN(c2ccccc2)CC1 (stereo not drawn),6&11
COC(=O)c1cc(S(C)(=O)=O)ccc1OC,10
COc1ccc([C@@H]2CNC(=O)C2)cc1OC1CCCC1,11&-3
O=c1cc(N2CCOCC2)nc2c3ccccc3ccn12,7
O=c1[nH]c(-c2ccc(C(F)(F)F)cc2)nc2c1CSCC2,29
Cc1nc(C#Cc2ccnc(Cl)c2)c(C)n1-c1ccc(F)cc1,22
Cc1nc(C)c(-c2ccc(C3CCC(CC(=O)O)CC3)cc2)nc1C(N)=O (stereo not drawn),22
C#C[C@]1(OC(C)=O)CCC2C3CCC4=C/C(=N/O)CCC4C3CC[C@@]21CC (stereo partly drawn),-85*
CS(=O)(=O)N1CCc2c(-c3cnc(N)nc3)nc(N3CCOCC3)nc21,-4
CN1CCN(c2cc3c(cc2F)c(=O)c(C(=O)O)cn3-c2ccc(F)cc2)CC1,4
O=C(NCCCN1CCC2(CC1)OCc1ccccc12)[C@H]1CCCN1Cc1ccccc1,19
Cc1cnc(NC(=O)Nc2cc(Br)c(C)cc2OC[C@@H]2CNCCO2)cn1,-68
Cc1cc(-c2cc(O)ccc2Cl)cc2nnc(Nc3ccc(OCCN4CCCC4)cc3)nc12,-90*
CCC[C@H](N[C@H]1CCc2cc(F)cc(F)c2C1)C(=O)Nc1cn(C(C)(C)CNCC(C)(C)C)cn1,-18
CNC(=O)c1ccccc1Nc1cc(Nc2ccc(N3CCOCC3)cc2OC)ncc1C(F)(F)F,-47
COc1cc(N2CCC(N(C)C)CC2)ccc1Nc1ncc(Cl)c(Nc2ccccc2P(C)(C)=O)n1,-60
Cc1ccc(C(=O)Nc2ccc(CN3CCN(C)CC3)c(C(F)(F)F)c2)cc1C#Cc1cnc2[nH]ncc2c1,-89*
O=C(CN1C(=O)C2(CCCC2)NC[C@H]1c1cc(F)cc(F)c1)Nc1ccc2c(c1)C[C@@]1(C2)C(=O)Nc2ncccc21,-9
O=C(NCC(=O)N1CC[C@H](NC2CCC(O)(c3ccc(-c4ncccn4)cn3)CC2)C1)c1cccc(C(F)(F)F)c1 (stereo partly drawn),13
CCCc1cc(C)[nH]c(=O)c1CNC(=O)c1cc(-c2ccc(N3CCN(C(C)C)CC3)nc2)cc2c1cnn2C(C)C,-22
O=C(N[C@H]1CCN(C(=O)c2cc(C(F)(F)F)cc(C(F)(F)F)c2)[C@H](Cc2ccc(Cl)cc2)C1)c1ccnc2ccccc12,25

# New compounds follow.
SMILES,T. gondii
CN1CCN(CCCN2c3ccccc3Sc3ccc(S(=O)(=O)N(C)C)cc32)CC1,12
O=C(NCCN1CCOCC1)c1ccc(Cl)cc1,0
CNC(=O)c1ccc(C)c(-n2c(C)cc(OCc3ccc(F)cc3F)c(Br)c2=O)c1,10
CCN1CC(CCN2CCOCC2)C(c2ccccc2)(c2ccccc2)C1=O (stereo not drawn),19
Cc1oncc1C(=O)Nc1ccc(C(F)(F)F)cc1,187&165
Cc1cccc(C)c1NC(=O)c1cc(S(N)(=O)=O)c(Cl)cc1O,15
CC(=O)c1cnc2ccc(-c3cc(Cl)c(O)c(Cl)c3)nc2c1NC1CCC(CN(C)C)CC1 (stereo not drawn),-87*
C/C=C(/C)C(=O)O[C@H]1C(C)=C[C@]23C(=O)[C@@H](C=C(CO)[C@@H](O)[C@]12O)[C@H]1[C@@H](C[C@H]3C)C1(C)C,14
Cc1cc(-c2ncc(CC(=O)Nc3ccc(-c4cnccn4)cn3)cc2C)ccn1,5
CN1CCC(=C2c3ccccc3CC(=O)c3sccc32)CC1,-35&19
CN1CCN(c2c(F)cc3c(=O)c(C(=O)O)cn4c3c2SCC4)CC1,12
CCOc1ccc(Nc2nc(-c3c(C)nc4ccccn34)cs2)cc1,-74*
CC1(C)Oc2ccc(C#N)cc2[C@@H](N2CCCC2=O)[C@@H]1O,-6
CN=C(N)NC(=O)Nc1c(C)cccc1C,13&5
Cc1ccc(C(=O)C(C)CN2CCCCC2)cc1 (stereo not drawn),4
CCOC(=O)Nc1ccc2c(c1)N(C(=O)CCN1CCOCC1)c1ccccc1S2,11
CC(C)(C)Sc1c(CC(C)(C)C(=O)O)n(Cc2ccc(Cl)cc2)c2ccc(OCc3ccc4ccccc4n3)cc12,13
CCCCC(=O)O[C@]1(C(=O)CO)[C@@H](C)C[C@H]2[C@@H]3CCC4=CC(=O)C=C[C@]4(C)[C@@]3(F)[C@@H](O)C[C@@]21C,-4
CC1CCc2c(N3CCC(O)CC3)c(F)cc3c(=O)c(C(=O)O)cn1c23 (stereo not drawn),9
Cc1noc(-c2ccc(-c3ccc(CC(=O)O)cc3)cc2)c1NC(=O)O[C@H](C)c1ccccc1,6
Cc1cc(C(N)=O)ccc1-n1c(CCC(=O)O)ccc1-c1ccc(-n2ccnc2)cc1,-3
Cn1cnc2c(F)c(Nc3ccc(Br)cc3F)c(C(=O)NOCCO)cc21,3
CCC(Cc1c(I)cc(I)c(N)c1I)C(=O)O (stereo not drawn),-12&-38
NC(=O)NC(=O)Cc1ccccc1,-2&8
CN1C(=O)CC(C)(c2ccccc2)C1=O (stereo not drawn),3
NC(=O)c1ccc([N+](=O)[O-])cc1Cl,19&17
CCc1cc(-c2n[nH]c(C)c2-c2ccc3c(c2)OCCO3)c(O)cc1O,-16
O=C(c1cn(Cc2cncn2Cc2ccc(Br)cc2)cc1-c1cccc2ccccc12)N1CCOCC1,-13
COC(=O)Nc1nc2ccc(C(=O)C3CC3)cc2[nH]1,-35
COc1c(O)cc2c(c1O)[C@@H]1O[C@H](CO)[C@@H](O)[C@H](O)[C@H]1OC2=O,20
OC[C@H]1O[C@@H](c2ccc(Cl)c(Cc3ccc(O[C@H]4CCOC4)cc3)c2)[C@H](O)[C@@H](O)[C@@H]1O,4
CCN(CC)CCOC(=O)C(c1ccccc1)c1ccccc1,9&24
CCN(CC)S(=O)(=O)c1ccc(C(=O)O)cc1,12&-1
O=C(Nc1cccc(C(F)(F)F)c1)Nc1cc(S(=O)(=O)NC2CC2)ccc1-c1ccsc1,-54
c1ccc2c(Oc3nc(Nc4ccc(N5CCOCC5)cc4)c4ncn(C5CCCCC5)c4n3)cccc2c1,-4&13
Cc1cc(CN2CCN(c3c(Br)cnc4nc(-c5ccc(N6CCN(C)CC6)cc5)[nH]c34)CC2)no1,?
COc1ccc2cc(-c3nc(-c4ccc(S(C)=O)cc4)[nH]c3-c3ccncc3)ccc2c1 (stereo not drawn),-51
Cc1ccc(C(=O)N(CCCN)[C@@H](c2oc3cc(Cl)ccc3c(=O)c2Cc2ccccc2)C(C)C)cc1,-80*
COc1cc2c(cc1OC)CN(CCc1ccc(NC(=O)c3cccc4c(=O)c5cccc(OC)c5[nH]c34)cc1)CC2,-80*
CC(C)(C(=O)c1cccnc1)c1cccnc1,6
CCS(=O)(=O)N1CCN(c2ccc(Nc3ncc(C(N)=O)c(NC4CC4)n3)cc2)CC1,-79*
CCCc1cc(C(N)=S)ccn1,14&-4
Cc1ccccc1C(C(=O)NC1CCCCC1)N(C(=O)Cn1ccnc1C)c1cccc(F)c1 (stereo not drawn),9
Cc1cccc(/C=N/Nc2cc(N3CCOCC3)nc(OCCc3ccccn3)n2)c1,-84*
O=C(OC1C[C@@H]2CC3C[C@H](C1)N2CC3=O)c1c[nH]c2ccccc12 (stereo partly drawn),-1
CCCc1ncc(C(=O)O)s1,6
